# D2 potentiator – positive allosteric modulators of human D2 dopamine receptor | hit rate 0.23% among 360,000 | potentiation, % (concentration not given with the values) | DiscoveRx D2 beta-arrestin cells, luminescence, 90 min; 100% = 57 uM dopamine signal; active = potentiation of 50% or more; inconclusive = 30% to 50%; inactive = 30% or less;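 note: compound concentration not given in the record; tested on top of an EC20 dose of dopamine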
# Target sequence (P14416 whole entry, looked up): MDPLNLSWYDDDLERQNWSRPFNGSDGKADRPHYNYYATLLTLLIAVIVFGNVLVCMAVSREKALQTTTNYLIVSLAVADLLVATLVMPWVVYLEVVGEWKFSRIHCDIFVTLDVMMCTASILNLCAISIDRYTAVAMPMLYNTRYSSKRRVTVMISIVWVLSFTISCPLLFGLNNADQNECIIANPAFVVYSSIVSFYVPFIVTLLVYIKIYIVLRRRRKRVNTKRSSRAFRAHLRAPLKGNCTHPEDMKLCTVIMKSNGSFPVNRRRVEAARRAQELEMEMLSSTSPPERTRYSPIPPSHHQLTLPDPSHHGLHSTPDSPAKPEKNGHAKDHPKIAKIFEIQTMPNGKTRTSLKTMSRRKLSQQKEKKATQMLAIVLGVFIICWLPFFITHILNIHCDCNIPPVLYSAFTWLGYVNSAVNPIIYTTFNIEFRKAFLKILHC
#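 PathHunter D2 cells, attached overnight at 37 deg C, received compound in DMSO plus dopamine at EC20 (50 nM final) for 90 min at 37 deg C. Beta-arrestin recruitment was read as luminescence after 1 h with detection reagent at ambient temperature.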
# TRPML1 blocker – inhibitors of human TRPML1 channel. activity change, negative = inhibition, % (no concentration beside the values). TRPML1-inducible cells, Ca2+ dye fluorescence, FDSS; hits give low values; inhibition of EC80 agonist-evoked calcium signal. hit rate 0.02% among 390,000. Q9GZU1; in the data active means activity change below about -50%; inconclusive means about -30% to -50%; inactive means above about -30%;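 note: stimulus is agonist 54-4 at its EC80 concentration; % is set by controls: 0 for no effect and ±100 for the full control effect; compound concentration not given in the record; the text of the record puts the active cut at -80%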
# Target sequence (Q9GZU1 whole entry, looked up): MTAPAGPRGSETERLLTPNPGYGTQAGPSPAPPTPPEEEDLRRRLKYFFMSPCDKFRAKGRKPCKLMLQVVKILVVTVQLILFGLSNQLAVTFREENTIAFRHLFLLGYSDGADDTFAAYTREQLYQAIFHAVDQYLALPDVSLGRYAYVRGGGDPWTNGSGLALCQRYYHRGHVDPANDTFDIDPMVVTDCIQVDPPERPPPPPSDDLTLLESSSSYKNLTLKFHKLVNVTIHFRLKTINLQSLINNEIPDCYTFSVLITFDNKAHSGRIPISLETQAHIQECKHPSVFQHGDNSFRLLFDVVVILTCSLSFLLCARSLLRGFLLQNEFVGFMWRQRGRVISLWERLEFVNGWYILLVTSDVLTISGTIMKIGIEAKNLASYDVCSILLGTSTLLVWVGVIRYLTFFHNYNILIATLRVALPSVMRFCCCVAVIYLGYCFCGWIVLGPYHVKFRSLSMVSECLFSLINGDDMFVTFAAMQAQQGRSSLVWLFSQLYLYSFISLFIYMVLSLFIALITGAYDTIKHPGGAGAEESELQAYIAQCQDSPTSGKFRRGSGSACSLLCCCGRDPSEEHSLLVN
#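 Tet-induced TRPML1-DL cells loaded with Ca8 no-wash calcium dye were read kinetically on FDSS. Compound addition was followed by EC80 agonist 54-4 (4 uM final); inhibition was read over 110 s.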
# D2 agonist – activates the human D2 dopamine receptor. DiscoveRx PathHunter D2 beta-arrestin, luminescence, 90 min; 100% = 57 uM dopamine signal. activation, % (no concentration beside the values). P14416. hit rate 0.084% among 360,000; in the data active = activation above about 40%; inconclusive = about 15% to 40%; inactive = below about 15%; note: compound concentration not given in the record; the text of the record calls up to 30% inactive
#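 DiscoveRx PathHunter D2 beta-arrestin cells (2,100/well) attached overnight, then compound-stimulated 90 min at 37 C in HBSS/10 mM HEPES/0.1% Tween-20 buffer; beta-galactosidase complementation read by luminescence after 1 h at ambient temperature. Dopamine 57 uM final (EC100) as control.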
# Six1-Eya2 blk – Six1/Eya2 interaction inhibition. Q15475+O00167. AlphaScreen GST-Six1/His-Eya2 binding, biochemical; hits give low values; control for the full effect not named in the record. AID 651725. hit rate 0.56% among 360,000. activity change, % (no concentration beside the values); in the data active = activity change below about -65%; inconclusive = about -30% to -65%; inactive = above about -30%; note: % is set by controls: 0 for no effect and ±100 for the full control effect; compound concentration not given in the record
#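 AlphaScreen with GST-Six1 and His-Eya2 (5X mix: 250 nM and 500 nM), glutathione donor and nickel acceptor beads; buffer 50 mM Tris pH 8.0, 300 mM NaCl, 1 mM TCEP; 1 h at 37 C in the dark.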
# TRPML1 agonist – activates the human TRPML1 channel; Q9GZU1; TRPML1-expressing cells, Ca2+ dye fluorescence, FDSS; host cell line not named in the record; reference of the full effect not given here; activation, % (test concentration not listed); hit rate 0.12% among 410,000; in the data active = activation above about 50%; inconclusive = about 30% to 50%; inactive = below about 30%; note: 0% is about no effect; the text of the record puts the active cut at 80%
#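 Kinetic FDSS Ca2+ read in Tet-induced TRPML1-DL cells (ABD Ca8 dye plus quencher, 45-90 min RT loading): baseline, then compound, then 110 s agonist window; EC80 agonist 54-4 at 4uM final added afterwards for a 110 s antagonist window.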
# PINK1 modulator – PINK1 expression modulation. PINK1 immunofluorescence, high-content cytometry, 24 h. Potency, µM (titrated, usually from 76.6 µM), without a hit: at the top dose activation (PINK1 increase), hits mostly activators. hit rate 0.2% among 410,000; active = well fitted activation curve with a large enough effect; inconclusive = small, poorly fitted or top-dose-only effect; inactive = flat fitted curve, though single readings scatter; cell line not stated here;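 note: potency is the fitted concentration of half-maximal effect; % of control where 0% means no effect; nearly all actives have a fitted effect of over 65% in size; a mitochondrial uncoupler was the plate control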
#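 Compound titrations (5 concentrations, 24 h) on a stable cell line; DMSO and CCCP controls. Endpoint: fixed-cell PINK1 immunofluorescence with mitochondrial, cell and nuclear markers, scanned by microplate cytometer.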
# The depositor's hits bear a star; ? = inconclusive; nt = not tested or not shown; & = joins results of further samples; [ ] = remark or other dose.
no.	canonical_smiles	PINK1 modulator	TRPML1 agonist	Six1-Eya2 blk	D2 potentiator	D2 agonist	TRPML1 blocker
1	O=C1[C@H]2[C@@H](c3ccc(Cl)cc3)N3C(=O)N(c4cccc(Cl)c4)C(=O)[C@@]3(Cc3ccc(Cl)cc3)[C@H]2C(=O)N1C1CCCCC1	-0.7%	0.0	-6	-8	-1.7	16
2	CC1CC(=O)N(c2ccc(NCc3ccccc3Cl)c([N+](=O)[O-])c2)C1=O (stereo not given)	-0.4%	2.3	-30	-9	-3.8	54
3	COc1cccc(C2CC(c3cccs3)=NN2C(=O)c2ccco2)c1O (stereo not given)	0.8%	-1.7	?	-9	-10	10
4	CCOC(=O)c1cccc(NC(=O)CSc2cc(=O)n(C)c3ccccc23)c1	3.5%	0.1	nt	nt	nt	39
5	CC(C)Oc1ccc(CNC(=O)CCCn2c(=O)c3cccn3c3cccnc32)cc1	6.8%	3.2	nt	nt	nt	2
6	Cc1ccc(C(O)c2nc3ccccc3n2C)cc1 (stereo not given)	0.7%	-1.1	-1	-1	5.4	-9
7	CC1CCCC(C)N1C(=O)COC(=O)c1cc(-c2cccs2)nn1-c1ccccc1 (stereo not given)	3.0%	3.3	-9	-9	-0.9	8
8	COc1ccc(-c2noc(CSc3nnc(C)n3-c3ccc(F)cc3)n2)cc1	1.2%	-1.3	nt	nt	nt	-11
9	CCOC(=O)C(=O)N(C)c1c(CC)nc2c(OCCC3CCCCC3)cccn12	-0.1%	-0.6	7	-11	-2.2	56
10	CC(C)(C)c1ccc(C(=O)Nc2ccccc2C(=O)NCCN2CCOCC2)cc1	0.5%	0.6	0	-14	-1.4	25
11	Cc1nnc(SCc2ccc3c(c2)OCO3)s1	-3.9%	-1.6	2	-3	-0.4	-6
12	CN(C)S(=O)(=O)c1ccc(N2CCCC2)c(C(=O)N2CCN(S(=O)(=O)c3ccccc3F)CC2)c1	-1.0%	1.7	10	-11	-2.0	-9
13	CN(C)S(=O)(=O)c1ccc(NC(=O)COC(=O)C2COc3ccccc3O2)cc1 (stereo not given)	-1.7%	0.2	-3	1	-0.1	9
14	O=C(Nc1nnc([C@H]2C[C@H](O)[C@@H](CO)O2)s1)Nc1ccccc1Oc1ccccc1	0.9%	-0.5	1	-3	3.1	nt
15	C/C(=N\NC(=O)CNC(=O)c1ccccc1F)c1ccco1	1.1%	0.3	6	-9	-1.5	73
16	Cc1nn(C)c(C(=O)N/N=C/c2ccc(-c3ccccc3)cc2)c1Cl	7.6%	-0.1	2	7	0.7	21
17	CN(C)c1ccc(C2C=C(c3ccccc3)Nc3nnnn32)cc1 (stereo not given)	4.2%	6.6	nt	nt	nt	-9
18	Cc1[nH]c2ccccc2c1Cc1nnc(SCC(N)=O)o1	2.8%	0.1	1	2	-2.7	-9
19	CC(=O)Nc1cccc(NC(=O)CN2C(=O)CCSc3ccccc32)c1	-0.8%	2.0	nt	nt	nt	19
20	COc1ccc(CCNC2=C(Cl)C(=O)N(Cc3ccccc3)C2=O)cc1OC	3.3%	1.7	22	-4	-2.7	38
21	CCc1nn(CC(=O)NCC(C)c2ccccc2)c(=O)c2cc3c(OC)cccc3n12 (stereo not given)	0.6%	-0.8	nt	nt	nt	-13
22	COc1ccc(NC(=O)CN2CCN(CC#N)CC2)cc1	-2.0%	0.4	8	-2	-1.1	-19
23	O=C(NCc1nnc(SCC(=O)N2CCOCC2)o1)c1c(F)cccc1F	2.3%	0.0	4	-11	-0.3	-7
24	Cn1c(=O)c2c(ncn2CC(=O)OCC(=O)NCc2ccc(F)cc2)n(C)c1=O	-1.1%	0.0	6	-14	-3.7	-6
25	O=C(O)CC(NC(=O)C12CC3CC(CC(C3)C1)C2)c1cc([N+](=O)[O-])ccc1Cl (stereo not given)	0.3%	-0.7	40	3	-3.9	17
26	CC1(C(=O)O)Cc2ccccc2C(=O)O1 (stereo not given)	?	0.0	34	2	-1.8	-5
27	CC(=O)Nc1c2c(nn1-c1cccc(Cl)c1)CS(=O)(=O)C2	-0.1%	-0.5	1	-7	-7.1	-3
28	COC(=O)N/N=C/c1cn(Cc2c(Cl)cccc2Cl)c2ccccc12	-0.1%	0.1	-15	-5	-2.6	-8
29	COc1cc(NC(=O)CN2C(=O)C(c3ccccc3)=NC2(C)C)cc(OC)c1	0.7%	-0.1	-2	-3	-7.8	-6
30	O=C(Nc1c(Cl)cccc1Cl)c1cccc2c1C(=O)N(C1CCCCC1)C2	1.9%	-0.5	nt	nt	nt	-1
31	O=C(CSc1nc2ccccc2[nH]1)Nc1ccc(F)c(F)c1	-4.3%[38.3 µM]	1.0	3	-10	-1.1	3
32	Cc1cc(C)c2c(CC(=O)NN(C)C)coc2c1	-1.7%	0.1	1	5	-1.8	-10
33	Cc1cc(=O)oc2c3c4c(cc12)OCCN4CCC3	-2.1%	1.4	-12	-8	-0.9	-2
34	CCOC(=O)c1ccc(N2C(=O)c3n[nH]c(-c4ccco4)c3C2c2cccc(O)c2)cc1 (stereo not given)	-0.6%	-0.2	nt	nt	nt	-2
35	Clc1cccc(Cc2c(-c3cccc(Cl)c3)nc3ccc(Cl)cn23)c1	3.4%	0.4	-2	4	2.5	18
36	COc1ccc(NC(=O)c2c(-c3ccc(C)cc3)nnc3ccccc23)cc1OC	-0.4%	1.6	nt	nt	nt	26
37	COc1ccccc1C(C)NC(=O)c1cc(=O)[nH]c2ccccc12 (stereo not given)	2.4%	-1.1	20	-6	0.0	7
38	CCOC(=O)c1sc2ncn(CC(=O)Nc3cc(C)on3)c(=O)c2c1C	0.1%	0.6	-5	0	-1.6	-1
39	O=C(COC(=O)c1ccc2ccccc2c1)NCCCc1ccccc1	11%	2.2	-3	-6	-0.7	-9
40	O=C(NCc1ccncc1)c1ccc(N2CCCC2)c([N+](=O)[O-])c1	0.0%	-0.9	10	-12	4.4	-1
41	Cc1ccc(N(C(=O)c2csnn2)C(C(=O)NC(C)(C)C)c2cccnc2)cc1C (stereo not given)	-1.0%	0.0	5	-4	-1.2	3
42	CCN(CC)S(=O)(=O)c1cccc(C(=O)c2c(C)cc3ccccn23)c1	-0.4%	2.7	-7	-3	-3.1	69
43	COC(=O)c1ccccc1-c1cn(C)c2ccccc2c1=O	0.9%	-0.9	0	-3	-0.3	-10
44	CC(C)Cn1nc(NC(=O)C(C)(C)C)c2cc3ccccc3nc21	-0.9%	4.5	42	-16	-1.9	-9
45	CN[C@H]1CCc2cc(OC)c(OC)c(OC)c2-c2ccc(N(C)CC(OC)OC)c(=O)cc21	12%	0.0	-5	-4	-1.3	-8
46	CCCCC(=O)N(C)c1c(C)nc2ccc(C(=O)Nc3cccc(NS(C)(=O)=O)c3)cn12	3.3%	-0.4	-1	0	-1.5	nt
47	CCOc1ccc2ncc(S(=O)(=O)c3ccccc3)c(N3CCN(c4ccc(OC)cc4)CC3)c2c1	1.4%	-0.4	-18	-16	-2.2	-2
48	COc1ccc(/C(N)=N/OC(=O)c2ccc3ccccc3c2)cc1OC	1.8%	-0.2	1	19	12	-10
49	COc1cc(S(=O)(=O)N(CCc2ccccc2)Cc2cccs2)ccc1-n1cnnn1	-0.5%[38.3 µM]	3.5	5	-4	-1.5	4
50	O=C(NCc1ccccc1Cl)c1cc(-c2ccccc2)n[nH]1	1.6%	1.8	nt	nt	nt	6
51	CCC(=O)N1CCc2cc(Br)cc(S(=O)(=O)N3CCCC(C(=O)Nc4ccc(CC)cc4)C3)c21 (stereo not given)	2.8%	-0.3	nt	nt	nt	-4
52	S=C(NC12CC3CC(CC(C3)C1)C2)N1CCCC1	5.2%	-0.1	3	-7	4.2	-9
53	COc1ccccc1NC(=O)c1ccc2c(O)c(S(=O)(=O)c3ccccc3)c(=O)[nH]c2c1	0.4%	0.2	-10	-11	-2.9	0
54	CCN(CC(=O)NC(C)C)C(=O)C(CCSC)NC(=O)c1cccc(C)c1 (stereo not given)	1.3%	-1.3	-10	-2	-1.2	-6
55	CCCn1nnc(NC(=O)c2ccc(-c3cccc(Cl)c3)o2)n1	3.3%	0.5	-9	-21	-2.6	24
56	COc1ccc(S(=O)(=O)Cc2ccc(C(=O)N3CCN(c4ccc(Cl)cc4)CC3)o2)cc1	8.5%	0.5	1	5	6.2	-4
57	COc1cc(NC(=O)NCC2CCN(Cc3ccccc3Cl)CC2)cc(OC)c1OC	-3.2%&-1.6%	1.5&-0.1	-8	-15	2.7	47&6
58	CCO[C@@H]1OC(C(=O)N2CCOCC2)=C[C@H](c2ccc(C(F)(F)F)cc2)[C@H]1CCCO	7.1%	-0.8	10	-6	-0.1	-5
59	CCCn1c(SCC(=O)N(C)CC(=O)Nc2ccc(C)cc2)n[nH]c1=O	-1.0%	-0.3	2	-3	0.6	-2
60	O=C1[C@@H](Oc2ccccc2)[C@@H](c2cccnc2)N1c1ccccc1	7.8%	-0.8	-2	nt	2.6	-8

# Additional compounds follow.
no.	canonical_smiles	PINK1 modulator	TRPML1 agonist	Six1-Eya2 blk	D2 potentiator	D2 agonist	TRPML1 blocker
61	COc1ccc(/C=C/C(=O)c2ccccc2)cc1COc1ccccc1F	16%[38.3 µM]	3.7	1	-3	-3.0	74
62	COc1ccc(C2/C(=C(/O)c3ccc(F)cc3)C(=O)C(=O)N2CCCN(C)C)cc1 (stereo not given)	0.9%	-0.5	7	-6	-0.6	4
63	COc1ccc(C(=O)Nc2cc(C)on2)cc1	-1.3%	1.3	1	-6	-0.3	7
64	Cn1cc([N+](=O)[O-])c(C(=O)Nc2cc(Oc3cccnc3)cc([N+](=O)[O-])c2)n1	0.7%	-0.4	-3	-4	4.0	7
65	O=C(CCS(=O)(=O)c1cc(Br)cc2c1N(C(=O)C1CC1)CC2)N1CCN(c2cccc(C(F)(F)F)c2)CC1	4.5%	0.7	nt	nt	nt	52
66	CCOc1ccc2nc(SC3CC(=O)N(c4cccc(OC)c4)C3=O)sc2c1 (stereo not given)	0.5%	1.4	0	-12	3.7	5
67	COc1cccc(/C(C)=N/Nc2ncc(Cl)cc2Cl)c1	2.4%	2.0	3	-27	-0.4	2
68	O=c1[nH]c2cc3c(cc2cc1CN(Cc1nnnn1CC1CCCO1)C1CCCC1)OCO3 (stereo not given)	-0.5%	-1.1	9	-2	-4.7	21
69	COc1ccc(S(=O)(=O)NC(=O)C2(C)CCN2C(=O)Cc2ccccc2)cc1OC (stereo not given)	1.4%	-0.4	7	-7	-4.0	-12
70	O=C(c1ccc(CS(=O)(=O)Cc2ccc(Cl)cc2)o1)N1CCCC1	-0.4%[38.3 µM]	0.2	0	8	2.3	17
71	CCOCCCNC(=O)c1cc(=O)[nH]c2ccc(S(=O)(=O)N3CCCC3)cc12	5.5%	-0.8	nt	nt	nt	-1

# Record cards (already shown). Screens in order: PINK1 modulator, TRPML1 agonist, Six1-Eya2 blk, D2 potentiator, D2 agonist, TRPML1 blocker
# COc1cccc(/C(C)=N/Nc2ncc(Cl)cc2Cl)c1 across the screens: 2.4%, 2.0, 3, -27, -0.4, 2
# O=c1[nH]c2cc3c(cc2cc1CN(Cc1nnnn1CC1CCCO1)C1CCCC1)OCO3 (stereo not given) across the screens: -0.5%, -1.1, 9, -2, -4.7, 21

# Screens from PubChem.
